Hsc70 = small molecules displacing fluorescent ligand from Hsc70 – biochemical, fluorescence polarization, primary screen (AID 568); Hsc70 fluorescence polarization, probe displacement; higher % means a stronger effect; strong numbers were not always called active; 83,000 tested, under 10 active; displacement, % at 20 µM, or IC50 in µM where a hit was titrated;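 active = displacement above 50% without optical interference and an IC50 on retest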;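 note: ATPase domain with a fluorescein-tagged ATP probe; 0% = vehicle and 100% = excess ADP; read after one hour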
WNV NS2B-NS3 inh = blocks West Nile virus NS2B-NS3 protease activity; 65,000 compounds, 0.18% hits; z-score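 (tested at a level between 10 and 100 µM)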; P06935; WNV NS2B-NS3 protease, fluorogenic substrate Ex360/Em465; active compounds read low;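 active = z-score at -3 or under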;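 note: score is relative to mean and spread of the compound wells of a plate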
Target sequence (P06935 1371-1501 limits assumed): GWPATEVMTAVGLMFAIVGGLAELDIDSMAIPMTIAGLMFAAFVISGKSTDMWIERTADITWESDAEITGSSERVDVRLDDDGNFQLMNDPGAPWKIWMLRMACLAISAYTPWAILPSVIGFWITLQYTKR
Target sequence (P06935 1502-1679 limits assumed): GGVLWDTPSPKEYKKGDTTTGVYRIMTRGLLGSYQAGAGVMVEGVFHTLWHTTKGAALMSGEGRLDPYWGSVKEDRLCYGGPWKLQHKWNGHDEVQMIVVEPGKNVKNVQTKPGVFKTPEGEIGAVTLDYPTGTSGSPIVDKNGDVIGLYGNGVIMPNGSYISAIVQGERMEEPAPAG
MT1-MMP promoter = MT1-MMP gene expression reporter suppression – cell-based, luciferase reporter, luminescence (AID 618); MT1-MMP promoter luciferase reporter cells, luminescence; calls from a first round at 10 µM; hits with a dose series show EC50 in µM; 87,000 compounds, 0.62% hits;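 active = over half of the reporter light lost at 10 µM or EC50 under 50 µM; inactive = the rest and hits that failed the dose series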;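 note: actives suppress MT1-MMP promoter-driven transcription so potencies describe inhibitors; HT1080 fibrosarcoma cells; overnight exposure; toxic or luciferase-blocking compounds were not removed from the actives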
* hit, by the source's call; i = inactive; / = no result given. An excerpt (hit frequency here may not be typical).

SMILES	Hsc70	WNV NS2B-NS3 inh	MT1-MMP promoter
O=C(NC(C(=O)c1ccccc1)n1c(=O)cc[nH]c1=S)c1ccccc1 (stereo unspecified)	-3.7%	/	i
C/C(=C\C(=O)c1ccc(Br)cc1)N1CCCCC1	-3.4%	-1.37	i
CCOc1ccc2[nH]c(=O)c(CN(CC3COCCO3)C(=O)c3ccco3)cc2c1 (stereo unspecified)	-1.2%	-0.69	i
CC(C)(C)N1C(=O)Cc2c1nc(N)c1c(N)nc(N3CCCCC3CO)c(C#N)c21 (stereo unspecified)	-1.8%	0.74	i
O=C(NC1CCCCC1)N1CCC(n2cnc3ccccc32)CC1	-2.0%	-0.91	i
COc1ccc(CCc2nc(-c3ccc(-n4cccc4)cc3)no2)cc1	2.8%	0.92	i
CC(C)NC(=O)CSc1nc2ccccc2c(=O)n1CCCOC(C)C	-1.5%	0.37	i
C=CCc1cccc2cc(C(=O)NC(C)(C)C)c(=O)oc12	3.3%	0.04	i
CCCCS(=O)(=O)NC1=NCN(CCOC(=O)c2ccccc2)CN1	0.7%	0.24	i
Cc1ccc(C(=O)CC2(O)C(=O)N(CN3CCOCC3)c3ccccc32)cc1 (stereo unspecified)	-1.2%	-0.33	i
CCOc1ccc(C2N(c3ccc(Cl)cc3)C(=O)C3CCCN32)cc1OC (stereo unspecified)	-0.3%	0.47	i
CCCn1c(N2CCN(CC(=O)c3c[nH]c4ccccc34)CC2)nc2c1c(=O)[nH]c(=O)n2C	-10.2%	-0.82	i
Cc1cc(C)c(C)c(Cn2c(CO)nc3ccccc32)c1C	-0.4%	/	i
CC(C)N(Cc1cc2ccccc2[nH]c1=O)C(=O)C(C)(C)C	-3.2%	-1.09	i
COC(=O)c1cc(-c2c(C)nn(-c3ccccc3)c2C)n[nH]1	-8.1%	-0.06	i
CC(=O)Nc1ccc(Nc2nc(C)nc3c2oc2ccccc23)cc1	4.7%	0.02	i
COc1ccc(CN2CC(C(=O)NCCC3=CCCCC3)CC2=O)cc1 (stereo unspecified)	-6.2%	-0.28	i
Cc1ccc(NC(=O)c2ccco2)c(NC(=O)c2cccs2)c1	0.5%	1.67	i
CCN(CC)C(=O)N1c2ccccc2C=Cc2ccccc21	3.2%	/	i
Cc1c(-c2ccc(F)cc2)nc(N)c(C#N)c1-c1cccs1	-2.4%	/	i
Cc1csc(SCC(=O)Nc2nc3ccccc3s2)n1	3.5%	-1.77	i
CCCSc1nc2c(c(=O)[nH]c(=O)n2C)n1Cc1ccc(C)cc1	-5.6%	1.11	i
CCOC(=O)c1csc(NC(=O)c2ccc(S(=O)(=O)N(C)C)cc2)n1	4.2%	-0.34	i
CCOc1cccc(-c2nn3c(-c4ccco4)nnc3s2)c1	-3.6%	-1.24	i
Cc1cccc(NC(c2ccc(O)cc2)c2ccc3ccc(C)nc3c2O)n1 (stereo unspecified)	0.1%	/	i

Following part.
SMILES	Hsc70	WNV NS2B-NS3 inh	MT1-MMP promoter
O=C1CC(N2CCN(Cc3ccc4c(c3)OCO4)CC2)C(=O)N1c1ccccc1 (stereo unspecified)	1.5%	1.21	i
COC(=O)c1ccc(C(=O)OCCCc2nc3ccc(N)cc3[nH]2)cc1	4.3%	/	i
CCOC(=O)C1CCN(CCC(=O)Nc2ccccc2Cl)CC1	-4.2%	/	i
OC(COc1ccccc1)CN1C2=NCCCN2c2ccccc21 (stereo unspecified)	-1.5%	0.72	i
Cc1cc(NC(=O)COC(=O)c2ccc(F)c(S(=O)(=O)N3CCOCC3)c2)no1	2.2%	-0.47	i
Cc1cc(N2CC(=O)N(CCc3ccccc3)C(=O)C2)n2ncnc2n1	-3.7%	0.56	i
NC(=O)NC(=O)CSc1nnc(-c2ccco2)n1Cc1ccccc1	2.5%	/	i
CCCCNC(=O)c1nc2ncc(Br)cn2n1	6.7%	0.42	i
Cn1c(=O)c2c(nc(NCc3ccc4c(c3)OCO4)n2C)n(C)c1=O	6.1%	0.93	i
C=CCc1ccccc1OCCn1ccnc1	-3.6%	-0.64	i
COC(=O)c1ccccc1NC(=O)C1CC(=O)N(c2ccccc2)C1 (stereo unspecified)	5.2%	-0.03	i
COC(=O)C1=NN(C(=O)c2ccccc2)C(C)(O)C1 (stereo unspecified)	-0.2%	/	i
N=c1c2c(-c3ccccc3)c(-c3ccccc3)n(Cc3ccccc3)c2ncn1CCCO	0.5%	/	i
CC1/C(=N/O)C(CN(C)C)C2CC1C2(C)C (stereo unspecified)	-2.1%	0.54	i
CC(N=Cc1nc(-c2ccccc2)oc1O)c1ccccc1 (stereo unspecified)	0.3%	/	i
C=CCn1c(C2CC(=O)N(c3ccc(C)cc3)C2)nc2ccccc21 (stereo unspecified)	-1.2%	-0.51	i
O=C(NCCCN1CCCCC1)C1CCC(=O)N1CCc1ccccc1 (stereo unspecified)	5.7%	0.05	i
O=C(Nc1ccccc1)Nc1ccccn1	6.0%	-1.16	i
COC(=O)c1ccc(NC(=O)CN(c2ccc(C)cc2)S(=O)(=O)c2c(C)nn(C)c2C)cc1	2.0%	/	i
Cc1ccc(-n2nnc3ccccc3c2=O)cc1C	1.5%	-0.8	i
CSc1ccc(C2C(C#N)=C(N)Oc3cc4c(cc32)OCO4)cc1 (stereo unspecified)	0.9%	-0.56	i
O=C1CCC(=O)N1CCc1c[nH]c2ccccc12	-4.1%	/	i
CC(C)c1ccc(N(CC(=O)O)S(=O)(=O)c2cccnc2)cc1	1.3%	-0.49	i
CCCCCNC(=O)c1c(N)n(/N=C/c2ccco2)c2nc3ccccc3nc12	-10.8%	-0.65	i
CC(NC(=O)C(NC(=O)C1CCCN1C(=O)OC(C)(C)C)C(C)C)C(N)=O (stereo unspecified)	-0.8%	0.28	i

(more compounds)
SMILES	Hsc70	WNV NS2B-NS3 inh	MT1-MMP promoter
O=C(O)CSc1nnnn1-c1ccccc1	5.2%	/	i
CCNC(=S)N1CCC(NC(=O)C2CCCCC2)CC1	-0.2%	/	i
COc1ccc(OCCN2C(=O)NC(C)(c3ccc(C)cc3)C2=O)cc1 (stereo unspecified)	1.4%	-0.95	i
Cc1ccc(O)c(C2=NCCNC(C(F)(F)F)=C2)c1	1.3%	/	i
COCCNC(=O)c1sc2ncn(CC(=O)N3CCCCC3)c(=O)c2c1C	-1.3%	-0.49	i
Cc1noc(C(=O)Nc2ccccc2C(F)(F)F)c1Cl	-2.8%	-1	i
CO/N=C/C(=N\Nc1ccc(OC)cc1)C(=O)c1ccc(OC)cc1	3.2%	/	i
CC(NC(=O)OC1CCCCC1)N1C(=O)C2C3C=CC(C3)C2C1=O (stereo unspecified)	-7.0%	2.06	i
COc1ccc(S(=O)(=O)N2CCCN(Cc3cccc(F)c3)CC2)cc1	-7.3%	0.42	i
CN(C)S(=O)(=O)c1ccc(C(=O)Nc2ccnn2C2CCCCC2)cc1	3.4%	0.98	i
CCOC(=O)C1CCCN(C(=O)COC(=O)C2=COCCO2)C1 (stereo unspecified)	-2.6%	-0.14	i
CCc1cc2c(=O)c(-c3nc4ccccc4n3C)c(COCC(=O)O)oc2cc1O	-2.3%	-0.44	i
Cc1[nH]nc(-c2ccc(O)cc2O)c1-c1ccc(Cl)cc1	3.8%	-0.28	i
CCCC(=O)Nc1ccc(Cl)c(NC(=O)c2cccnc2)c1	-0.3%	-0.19	i
Cc1ccc(C)n1CCN1CCN(CC(=O)Nc2ccc(S(N)(=O)=O)cc2)CC1	2.2%	0.44	i
CSc1nnc2c3ccccc3n(Cc3ccccc3)c2n1	-4.4%	-0.6	i
Cn1c(N2CCN(c3ccccn3)CC2)nc2c1c(=O)n(Cc1ccccc1Cl)c(=O)n2C	-2.9%	-0.33	i
Cc1cc(C)c(-c2cc(NC(=O)CSc3nncn3C)n(-c3ccccc3)n2)cc1C	-8.5%	0.09	i
Cc1onc(-c2c(Cl)cccc2Cl)c1C(=O)NC(C)(C)CO	0.7%	-0.41	i
CN(C)CCCNCCCNC(=O)/C(=N\O)c1ccccn1	-1.7%	-0.23	i
COc1ccc(-c2cn3ccc4ccccc4c3n2)cc1	1.3%	/	i
COc1ccccc1N1CCN(C(=O)c2ccc3c(=O)n(Cc4ccco4)c(=S)[nH]c3c2)CC1	-9.2%	-0.23	i
CCOc1ccc(-c2nc(CSCC(=O)N3CCN(c4cccc(OC)c4)CC3)c(C)o2)cc1	-1.0%	-0.04	i
C=CCNC(=O)c1ccc2nccnc2c1	1.7%	0.21	i
Cc1cc(C#N)c(C)n1-c1cc(C(F)(F)F)ccc1N1CCOCC1	-10.2%	1.72	i

(next part)
SMILES	Hsc70	WNV NS2B-NS3 inh	MT1-MMP promoter
CC(C)n1c(Nn2cnnc2)nc2ccccc21	2.0%	0.6	i
C=CCc1c(C)[nH]c(=S)c(C#N)c1C	-2.6%	-0.93	i
O=C(NCc1ccc2c(c1)OCO2)c1ccc2snnc2c1	-2.8%	1.31	i
O=C1C=C(NCCNc2c(F)c(F)c(CO)c(F)c2F)CCC1	-4.8%	-0.56	i
O=C(CS(=O)CC(=O)N(CC(=O)NC1CCCC1)C1CCCCC1)Nc1ccc(F)cc1 (stereo unspecified)	-7.1%	-0.8	i
CCOC(=O)c1ccc2nc3c(cc2c1)CCS3	1.0%	-0.38	i
CCCCOc1ccc(NC(=O)CSCC(=O)OCC)cc1	-5.1%	-0.55	i
COc1cc(NC(=O)c2cc(-n3cnnc3)ccc2Cl)cc(OC)c1	-0.6%	0.27	i
O=C1CCC(=O)N1OCCOc1ccc2c(c1)CCC2	1.1%	-0.83	i
CCCOc1ccc(C2C(C(=O)OC)=CN(CCOC)C=C2C(=O)OC)cc1	-1.8%	0.64	i
O=C(Nc1ccc(Cl)cc1C(=O)NCCN1CCOCC1)c1ccc(Cl)cc1Cl	2.6%	/	i
CCOC(=O)CCc1c(C)c2c(C)nn(-c3ccccc3)c2[nH]c1=O	-1.0%	-0.41	i
COCCNC(=O)COc1ccc(Br)cc1Cl	2.3%	/	i
Cc1c(C(=O)N2CCC(C(N)=O)CC2)sc(N)c1C#N	-5.7%	-0.99	i
CC1N(O)C(C)(C)C(c2ccccc2)=[N+]1[O-] (stereo unspecified)	1.3%	/	i
O=C1CCCN1CN(C(=O)c1ccc2c(c1)OCO2)c1cccc(Cl)c1	-6.8%	-0.39	i
Cc1ccc(C(=O)CSc2nnnn2C(C)C)c(C)c1	-2.4%	/	1.7µM*
CCCCN1C2=NCCCN2c2ccccc21	9.0%	/	i
COc1ccc(-c2nnc(N(C)C(=O)c3cccnc3)s2)cc1	-1.6%	-0.93	i
COC(=O)C(C)Sc1nc2c(c(=O)n(C)c(=O)n2C)n1CCC(C)C (stereo unspecified)	3.1%	0.28	i
Cn1c2ccccc2c2ncn(CCC3=CCCCC3)c(=O)c21	2.0%	0.28	i
CCOc1ccc(NC(=O)CSc2nnc(C3CC3)n2N)cc1	-1.5%	-2.18	i
CC(C)CC(OC(=O)c1cccs1)C(=O)NCc1ccco1 (stereo unspecified)	-0.6%	0.45	i
Nn1c(-c2cccc(Br)c2)n[nH]c1=S	7.9%	0.02	i
CCN(C(=O)COc1ccccc1)c1nnc(-c2cccnc2)s1	-6.0%	0.76	i

Following part.
SMILES	Hsc70	WNV NS2B-NS3 inh	MT1-MMP promoter
Cc1cc(C)cc(OCC(=O)Nc2ccc(F)cc2)c1	0.7%	/	i
CCOC(=O)c1nnn(-c2nc(OC)nc(N(C)C)n2)c1-c1ccccc1	3.6%	-0.42	i
C=CCSc1n[nH]c(-c2ccc(OC)cc2)n1	-2.8%	0.97	i
CC(C)(C)Nc1cccccc1=O	8.8%	-0.5	i
Cc1cccc(N2CC(C(=O)O)CC2=O)c1 (stereo unspecified)	7.6%	0.42	i
CC(c1ccccc1)C1C(C#N)=C(N)SC(N)=C1C#N (stereo unspecified)	-2.7%	0.98	i
CCOC1(OCC)N=C(N)C2(C#N)C(c3cccc(C)c3)C12C#N (stereo unspecified)	6.0%	/	i
Cn1c(SCc2ccccc2)nnc1-c1cccs1	0.6%	-0.58	i
CCN(C#N)c1nc(NC(C)C)nc(NC(C)C)n1	-3.4%	0.64	i
CC(C)Cn1c(=O)c(C(=O)Nc2cnccn2)c(O)c2ccccc21	1.5%	-0.75	i
CC(=O)c1ccc(NC(=O)C2CCCN2S(=O)(=O)c2cccc3cccnc23)cc1 (stereo unspecified)	-1.3%	-0.29	i

From PubChem
